Source: PubChem (National Center for Advancing Translational Sciences (NCATS))
D2 ag = agonists of human D2 dopamine receptor (beta-arrestin); P14416; DiscoveRx PathHunter D2 beta-arrestin, luminescence, 90 min; 100% = 57 uM dopamine signal; activation, % (test concentration not listed); actives 0.084% (n = 360,000); AID 624465; in the data active = activation above about 40%; inconclusive = about 15% to 40%; inactive = below about 15%; note: compound concentration not given in the record; the text of the record calls up to 30% inactive
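Agonist mode: compounds alone added to overnight-plated D2 PathHunter cells for 90 min at 37 C, with 57 uM final dopamine (EC100) defining full response. Beta-arrestin recruitment detected by chemiluminescent reagent, read after 1 h at ambient temperature.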
TRPML1 agonist = human mucolipin-1 channel agonism. Q9GZU1. TRPML1-expressing cells, Ca2+ dye fluorescence, FDSS; host cell line not named in the record; reference of the full effect not given here. activation, % (concentration not given with the values). actives 0.12% (n = 410,000). AID 624414; in the data active = activation above about 50%; inconclusive = about 30% to 50%; inactive = below about 30%; note: 0% is about no effect; the text of the record puts the active cut at 80%
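Kinetic FDSS Ca2+ read in Tet-induced TRPML1-DL cells (ABD Ca8 dye plus quencher, 45-90 min RT loading): baseline, then compound, then 110 s agonist window; EC80 agonist 54-4 at 4uM final added afterwards for a 110 s antagonist window.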
TRPML1 blocker = human mucolipin-1 channel inhibition. Q9GZU1. TRPML1-inducible cells, Ca2+ dye fluorescence, FDSS; stronger effect = lower value; inhibition of EC80 agonist-evoked calcium signal. activity change, negative = inhibition, % (no concentration beside the values). actives 0.02% (n = 390,000); in the data active means activity change below about -50%; inconclusive means about -30% to -50%; inactive means above about -30%;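 note: stimulus is agonist 54-4 at its EC80 concentration; % is set by controls: 0 for no effect and ±100 for the full control effect; compound concentration not given in the record; the text of the record puts the active cut at -80%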
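TRPML1-DL cells, Tet-induced overnight (~16 h, 37 °C) at 1,500 cells/well, were loaded with Ca8 no-wash dye plus quencher for 45-90 min at room temperature. Compounds were pinned during FDSS kinetic reading; agonist 54-4 at EC80 (4 uM final) then added.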
PINK1 expr mod = PINK1 expression modulation. PINK1 immunofluorescence, high-content cytometry, 24 h. Potency, µM (series often up to 76.6 µM), inactives show top-dose activation (PINK1 increase), actives largely listed as activators. actives 0.2% (n = 410,000); active = well fitted activation curve with a large enough effect; inconclusive = small, poorly fitted or top-dose-only effect; inactive = flat fitted curve, though single readings scatter; cell line not stated here;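 note: potency is the fitted concentration of half-maximal effect; % of control where 0% means no effect; nearly all actives have a fitted effect of over 65% in size; a mitochondrial uncoupler was the plate control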
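Stable cell line, 250 cells/well, 12 h attachment; compounds pinned at 5 concentrations, 24 h; CCCP control. Fixed with nuclear dye, primary antibodies 12 h at 10 degrees C, secondary plus cell stain; laser-scanning cytometer read.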
Six1-Eya2 inh = inhibitors of human Six1/Eya2 interaction; actives 0.56% (n = 360,000); AlphaScreen GST-Six1/His-Eya2 binding, biochemical; stronger effect = lower value; control for the full effect not named in the record; activity change, % (concentration not given with the values); AID 651725; Q15475+O00167; in the data active = activity change below about -65%; inconclusive = about -30% to -65%; inactive = above about -30%; note: % is set by controls: 0 for no effect and ±100 for the full control effect
Target sequence (O00167 whole entry, looked up): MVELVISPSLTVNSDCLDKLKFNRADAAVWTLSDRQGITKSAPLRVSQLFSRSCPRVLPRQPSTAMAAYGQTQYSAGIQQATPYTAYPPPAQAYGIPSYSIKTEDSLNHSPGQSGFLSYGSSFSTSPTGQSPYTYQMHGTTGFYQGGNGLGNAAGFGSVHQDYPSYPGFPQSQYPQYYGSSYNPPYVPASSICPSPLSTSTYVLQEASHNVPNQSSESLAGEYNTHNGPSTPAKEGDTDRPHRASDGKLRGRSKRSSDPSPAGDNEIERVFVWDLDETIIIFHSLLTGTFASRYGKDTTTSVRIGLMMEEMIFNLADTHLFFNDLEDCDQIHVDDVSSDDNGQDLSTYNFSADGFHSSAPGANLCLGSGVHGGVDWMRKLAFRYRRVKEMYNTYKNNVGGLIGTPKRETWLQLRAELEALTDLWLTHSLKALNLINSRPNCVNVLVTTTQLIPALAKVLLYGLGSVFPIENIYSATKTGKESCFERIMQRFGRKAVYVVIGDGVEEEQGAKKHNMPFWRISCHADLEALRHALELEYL
Target sequence (Q15475 whole entry, looked up): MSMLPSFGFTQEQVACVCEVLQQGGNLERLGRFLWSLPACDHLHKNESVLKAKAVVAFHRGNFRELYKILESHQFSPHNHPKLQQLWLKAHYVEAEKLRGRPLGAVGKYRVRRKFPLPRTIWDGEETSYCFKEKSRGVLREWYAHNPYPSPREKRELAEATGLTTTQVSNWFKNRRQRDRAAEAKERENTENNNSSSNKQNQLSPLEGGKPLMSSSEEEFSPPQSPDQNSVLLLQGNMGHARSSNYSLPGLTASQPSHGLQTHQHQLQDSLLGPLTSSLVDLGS
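Homogeneous AlphaScreen proximity assay pairing GST-Six1 with His-tagged Eya2 (added as 5X mix: 250 nM and 500 nM) in 50 mM Tris pH 8.0, 300 mM NaCl, 1 mM TCEP. Glutathione donor and nickel acceptor beads; 1 h, 37 °C, dark.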
CtBP-E1A blk = blocks the CtBP interaction with E1A | AlphaScreen GST-E1A/His-CtBP binding, 1536-well; stronger effect = lower value; control for the full effect not named in the record | activity change, % (no concentration beside the values) | actives 0.49% (n = 340,000) | AID 651724; in the data active means activity change below about -65%; inconclusive means about -30% to -65%; inactive means above about -30%; note: % is set by controls: 0 for no effect and ±100 for the full control effect; compound concentration not given in the record
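AlphaScreen with 125 nM GST-E1A and 125 nM His-CtBP (5X stocks) in Tris pH 8.0, 300 mM NaCl, BSA, Tween 20, TCEP. Compounds preincubated 2 h at 37 deg C, then glutathione donor/nickel acceptor beads added for 1 h at 37 deg C in dark.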
The depositor's hits bear a star; ? = inconclusive; · = no result given; [ ] = another dose, or the depositor's remark. Rows are unselected; any-hit rate near 1%.

SMILES	D2 ag	TRPML1 agonist	TRPML1 blocker	PINK1 expr mod	Six1-Eya2 inh	CtBP-E1A blk
O=C1c2ccccc2NC(c2cnc3ccccc3n2)N1O (stereo not given)	-8.5	0.7	12	2.3%	-5	-3
Cc1sc(NC(=O)C2CC=CCC2C(=O)O)c(C(=O)OC(C)C)c1C (stereo not given)	-1.6	-0.4	7	-0.8%	0	1
O=C(c1ccccc1)c1nn(-c2ccc(Cl)cc2)cc1C(=O)c1cc2ccccc2oc1=O	1.9	1.1	5	10%	9	20
COc1cc2c(-c3cccc(Cl)c3)nc3c(c(C)nn3-c3ccccc3)c2cc1OC	·	-1.3	46	1.2%	·	·
COc1ccc(/C=C(\NC(=O)c2ccc(Cl)cc2)C(=O)NCC2CCCO2)cc1OC (stereo not given)	-1.7	0.4	-13	0.0%	7	0
Cc1c(C(=O)NCc2ccc3c(c2)OCO3)sc(=O)n1Cc1ccc(S(C)(=O)=O)cc1	-1.6	-0.3	·	0.3%	7	-19
COc1ccc(C(=O)NNC(=O)c2ccc(S(=O)(=O)N3CCOCC3)cc2)cc1	-2.9	0.2	-7	0.6%	4	2
Oc1ccccc1C1CC(c2cccs2)=NC(c2cccc(Br)c2)N1 (stereo not given)	-3.7	-0.2	10	0.0%	1	0
COc1cccc(C(=O)Nc2ccc(F)c(F)c2F)c1	-2.7	0.3	7	-0.9%	-3	-9
CCN(CC)C(=O)[C@H]1CC(CC(=O)NCC23CC4CC(CC(C4)C2)C3)C(=O)N2CCc3c([nH]c4ccc(OC)cc34)[C@]12C (stereo not given in full)	-3.2	-0.7	9	?	-10	-10
COc1ccc(-c2ccc3c(c2)O[C@H](CN(C)C(=O)Nc2ccccc2F)[C@@H](C)CN([C@H](C)CO)S3(=O)=O)cc1	-7.0	1.2	13	2.1%	-29	-9
N#Cc1c(N)c(C(=O)c2ccccc2)n2c1CCC2	1.1	-0.7	-5	-5.7%[38.3 µM]	0	5
CCOCc1nnc(NC(=O)c2ccc(OC)cc2)s1	1.7	0.3	0	-1.1%	4	-4
CCCCNS(=O)(=O)c1ccc2nc(-c3cccnc3)cc(C(=O)NCCCOCC)c2c1	·	-0.4	-2	-0.5%	·	·
O=C(Nc1ncc(Cc2cccc(Cl)c2)s1)C1CCCO1 (stereo not given)	0.4	6.2	16	0.1%	-2	0
O=C(NNS(=O)(=O)c1ccc(F)cc1)c1cc(Cl)ccc1O	-2.3	·	·	3.0%	12	·
COC(=O)[C@H](CCSC)NC(=O)Nc1ccc(C)cc1	-1.2	2.6	2	5.2%[38.3 µM]	1	1
CCN(C(=O)c1cc2cc(Br)cc(OC)c2oc1=O)c1ccccc1	·	1.9	19	11%	·	·
CCC(Cn1nnc2ccccc2c1=O)NC(=O)Nc1cc(OC)cc(OC)c1 (stereo not given)	·	-0.8	-1	0.7%	·	·
O=C(O)c1cccc(N2C(=S)N=C(Nc3ccccc3)C23CCCCC3)c1	-0.5	0.0	0	1.0%	8	7
O=C(c1ccccc1NS(=O)(=O)c1ccccc1)N1CCCCCC1	1.3	0.2	12	-0.9%	8	-4
O=C(CCCOC(=O)c1cccnc1Cl)c1ccc(Br)cc1	0.3	-1.8	19	0.0%	9	·
C=CCN(C(=O)c1cccc(S(=O)(=O)N2CCN(C)CC2)c1)c1nc(-c2ccccc2)cs1	5.7	1.6	36	12%	?	-24
CCC(C(=O)NCc1ccco1)N(C(=O)CNS(=O)(=O)c1ccc(F)cc1)c1ccccc1F (stereo not given)	-7.1	0.3	7	1.1%	4	-5
O=C(CCSc1ccccc1)Nc1nccs1	2.5	0.3	-9	-3.2%[38.3 µM]	4	8
Cc1ccccc1NS(=O)(=O)c1ccc(OCC(=O)NCc2cccnc2)cc1	0.0	2.5	12	5.2%	3	0
COc1ccc2oc(C(=O)OCC(=O)N(C)CC(=O)Nc3ccc(C)cc3)c(C)c2c1	-0.7	2.7	-7	-3.0%	-10	-1
COC(=O)c1ccccc1NC(=S)N1CCN(C2CCCCC2)CC1	-2.0	-0.4	-28	2.7%	1	2
CN(CC(=O)Nc1cc([N+](=O)[O-])ccc1Cl)Cc1ccc(Br)cc1	-0.1	2.1	29	?	-17	-7
O=C(/C=C/c1cccc(Cl)c1)NCc1ccccc1	-3.1	0.2	0	0.6%	6	-8

Three structures out of the list, ordered by number of heavy atoms, low to high.
SMILES	D2 ag	TRPML1 agonist	TRPML1 blocker	PINK1 expr mod	Six1-Eya2 inh	CtBP-E1A blk
COc1cccc(C(=O)Nc2ccc(F)c(F)c2F)c1	-2.7	0.3	7	-0.9%	-3	-9
CCN(C(=O)c1cc2cc(Br)cc(OC)c2oc1=O)c1ccccc1	·	1.9	19	11%	·	·
COc1cc2c(-c3cccc(Cl)c3)nc3c(c(C)nn3-c3ccccc3)c2cc1OC	·	-1.3	46	1.2%	·	·

More records follow:
SMILES	D2 ag	TRPML1 agonist	TRPML1 blocker	PINK1 expr mod	Six1-Eya2 inh	CtBP-E1A blk
CCc1cccc(C)c1NS(=O)(=O)c1ccc2c(c1)CC(C)N2C(=O)C1CC1 (stereo not given)	·	0.6	-24	1.9%	·	·
C[C@@H]1CN([C@H](C)CO)C(=O)c2c(c3ccccc3n2C)-c2ccccc2CO[C@H]1CN(C)C(=O)NC1CCCCC1	-3.6	1.0	21	-1.0%	3	4
COc1cc(C(=O)NC2CCN(C)CC2)ccc1Nc1ncc2c(n1)N(C1CCCC1)CCC(=O)N2C(C)C	-2.0	1.1	-1	11%	-1	-23
COc1cc(-c2coc3c(C(=O)NCc4ccc(C(F)(F)F)cc4)cccc23)ccc1O	7.4	-0.3	·	?	-6	-6
CCN1C(=O)CC(NCc2ccc(S(N)(=O)=O)cc2)C1=O (stereo not given)	-2.0	·	·	-0.3%	1	9
Cc1ccc(-c2cc(C(=O)NCc3ccco3)c3ccccc3n2)o1	-7.1	1.0	1	0.9%	-29	-9
O=C(c1ccc(Cl)cc1)C1CCN(C(=O)c2ccccc2F)CC1	-2.8	-0.3	-6	-1.4%	1	·
Cc1onc(-c2c(Cl)cccc2Cl)c1NC(=O)NNc1ccccn1	-3.6	0.5	4	0.8%	7	·
CC(C)c1ccc(OCc2nc(-c3ccccn3)no2)c(Br)c1	-2.1	4.1	11	0.5%	11	10
CN1C(=O)[C@H]2[C@@H](c3ccc(C(F)(F)F)cc3)N[C@]3(CCCN(Cc4ccco4)C3=O)[C@H]2C1=O	-6.2	-0.1	36	-0.3%	0	0
O=C(CCn1c(=O)c2ccccc2n(Cc2ccccc2)c1=O)NCc1ccc2c(c1)OCO2	-5.1	0.7	1	1.2%	2	2
O=C(NC(Cc1c[nH]c2ccccc12)C(=O)O)c1ccc(Br)cc1 (stereo not given)	0.5	-0.4	8	0.3%	-7	-5
CCOc1ccc(-n2c(SCC(=O)NCc3ccco3)nnc2-c2c[nH]c3ccccc23)cc1	-3.6	-0.4	3	2.3%	3	-10
COC(=O)COc1ccc(S(=O)(=O)Nc2ccc(C(N)=O)cc2)cc1C	0.7	-0.5	-11	7.4%[38.3 µM]	0	0
O=C(C1=C(O)C(=O)N(Cc2ccco2)C1c1ccccc1F)c1cccs1 (stereo not given)	0.2	0.5	-8	1.4%	16	0

One compound at a time, as listed above. Screens in order: D2 ag | TRPML1 agonist | TRPML1 blocker | PINK1 expr mod | Six1-Eya2 inh | CtBP-E1A blk
`O=C(c1ccccc1)c1nn(-c2ccc(Cl)cc2)cc1C(=O)c1cc2ccccc2oc1=O` as listed: 1.9 | 1.1 | 5 | 10% | 9 | 20
`Cc1c(C(=O)NCc2ccc3c(c2)OCO3)sc(=O)n1Cc1ccc(S(C)(=O)=O)cc1` as listed: -1.6 | -0.3 | · | 0.3% | 7 | -19
`O=C(Nc1ncc(Cc2cccc(Cl)c2)s1)C1CCCO1` (stereo not given) as listed: 0.4 | 6.2 | 16 | 0.1% | -2 | 0
`CN(CC(=O)Nc1cc([N+](=O)[O-])ccc1Cl)Cc1ccc(Br)cc1` as listed: -0.1 | 2.1 | 29 | ? | -17 | -7
`O=C(CCSc1ccccc1)Nc1nccs1` as listed: 2.5 | 0.3 | -9 | -3.2%[38.3 µM] | 4 | 8

New compounds follow
SMILES	D2 ag	TRPML1 agonist	TRPML1 blocker	PINK1 expr mod	Six1-Eya2 inh	CtBP-E1A blk
Cc1cccc(C)c1OCc1cc(C(=O)N(Cc2nccn2C)C(C)C)no1	-0.8	2.1	17	?	-3	0
CC(=O)c1cccc(NS(C)(=O)=O)c1	-5.1	0.7	44	1.8%	1	·
Cc1ccc(-c2ccc(=O)n(Cc3cccc(Br)c3)n2)cc1	-3.2	2.2	14	2.5%	4	15
CC1(C)CC2(CC(c3ccccc3F)c3ccc(O)c(O)c3O2)NC(=S)N1 (stereo not given)	2.3	0.2	14	-1.4%	-4	-5
CN(C)/C=C/C(=O)c1cnc2sccn2c1=O	0.4	0.7	2	0.5%	-1	12
CC1(C)NC(=O)N(CC(=O)O)C1=O	-4.5	-0.1	2	-1.6%	6	9
Cc1cccc(CN2CCC(n3nccc3NC(=O)CCCc3ccccc3)CC2)n1	-3.4	0.2	-9	0.9%	2	1
Cc1nn(C)cc1NC(=O)c1ccc(Br)o1	-4.4	0.2	-6	-1.6%	0	4
CC(=O)c1ccc(NC(=O)C(C)O/N=C(\N)c2ccccc2)cc1 (stereo not given)	-2.4	1.9	-2	0.3%	7	3
Cc1ccc(O)c(C(=O)c2cnn(-c3ccc(S(=O)(=O)N4CCOCC4)cc3[N+](=O)[O-])c2)c1	0.8	1.8	9	2.0%	-6	3
COC(=O)c1ccc(CNC(=O)c2ccc(S(=O)(=O)N(C)c3ccccc3OC)cc2)cc1	9.6	2.0	-8	-0.1%	4	-3
COc1ccc2c(c1)c(C(=O)N1CCN(C)CC1)c(C)n2-c1ccccc1	0.5	0.0	18	-0.1%	0	0
O=C(O)c1cc(NN=C2c3ccccc3-c3ccccc32)ccc1Cl	-5.2	1.2	48	2.4%	?	?
CC(C)(C(=O)c1ccccc1)/[N+]([O-])=C/c1ccccc1F	-0.3	-0.5	2	-2.1%[38.3 µM]	2	-12
CCN1C(=O)[C@H]2[C@@H](c3ccc(-c4ccc(F)cc4)cc3)N3CCCC[C@@]3(C(=O)OC)[C@H]2C1=O	-1.1	-0.5	29	6.8%	-10	·
CCCCn1c(N)c(N(CCC(C)C)C(=O)C2CCCO2)c(=O)[nH]c1=O (stereo not given)	-4.1	-0.9	2	1.1%	4	2
C=CCc1ccccc1OCCSc1nc(-c2ccc(C(C)(C)C)cc2)nc2cc(=O)[nH]n12	·	-1.1	3	3.3%	·	·
CC(C)(C)c1ccc(OCCC(=O)NCC(c2cccs2)N2CCOCC2)cc1 (stereo not given)	-4.7	0.1	7	-0.5%	0	3
